MenB inh = M. tuberculosis MenB inhibitors, primary screen, biochemical, absorbance; MenB enzyme assay, absorbance read-out; some hits fall short of the stated cut; 1,4-dihydroxy-2-naphthoyl-CoA synthase (Mycobacterium tuberculosis (strain ATCC 25618 / …; 100,000 tested, 0.43% active; inhibition, %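 (about 12 µg/mL by stock and volumes)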;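 active = mean of two replicates above 30%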;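 note: 0% = no compound and 100% = wells with inactive enzyme; the first replicate is given; strong numbers were not always called active; inactives centre near -10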
Target sequence (P9WNP5 whole entry, looked up): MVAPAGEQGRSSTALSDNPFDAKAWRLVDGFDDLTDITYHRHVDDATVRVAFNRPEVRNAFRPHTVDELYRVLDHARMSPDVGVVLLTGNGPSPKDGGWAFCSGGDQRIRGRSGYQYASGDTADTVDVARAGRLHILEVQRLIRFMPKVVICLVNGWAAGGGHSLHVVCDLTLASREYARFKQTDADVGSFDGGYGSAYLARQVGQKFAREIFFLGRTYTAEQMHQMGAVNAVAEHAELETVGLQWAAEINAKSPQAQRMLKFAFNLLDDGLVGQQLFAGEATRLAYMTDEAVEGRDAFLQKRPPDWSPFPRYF
Polio RdRp inh = poliovirus RdRp elongation inhibitors, primary screen, biochemical, fluorescence polarization, total intensity. Genome polyprotein (Poliovirus type 1 (strain Mahoney)), P03300. poliovirus polymerase elongation; stronger effect = lower value. % elongation, % (compound at 16.7 µg/mL). 150,000 tested, 0.66% active; in the data active = % elongation below about 90%; note: some results filed as inactive read as strong as hits
Mtb MbtI inh = MbtI salicylate synthase inhibitors, primary screen, biochemical, fluorescence intensity; purified MbtI enzyme, fluorescence intensity read-out; inhibition, %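 (about 17 µg/mL by stock and volumes)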; 100,000 tested, 0.89% active;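 active = above 50% in both replicates, above 80% if mildly self-fluorescent; inactive = the rest, strongly fluorescent compounds included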;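 note: 0% = mean of negative and 100% = mean of positive controls; one replicate is shown; some compounds called inactive have numbers as strong as hits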
Target sequence (P9WFX0 whole entry, looked up): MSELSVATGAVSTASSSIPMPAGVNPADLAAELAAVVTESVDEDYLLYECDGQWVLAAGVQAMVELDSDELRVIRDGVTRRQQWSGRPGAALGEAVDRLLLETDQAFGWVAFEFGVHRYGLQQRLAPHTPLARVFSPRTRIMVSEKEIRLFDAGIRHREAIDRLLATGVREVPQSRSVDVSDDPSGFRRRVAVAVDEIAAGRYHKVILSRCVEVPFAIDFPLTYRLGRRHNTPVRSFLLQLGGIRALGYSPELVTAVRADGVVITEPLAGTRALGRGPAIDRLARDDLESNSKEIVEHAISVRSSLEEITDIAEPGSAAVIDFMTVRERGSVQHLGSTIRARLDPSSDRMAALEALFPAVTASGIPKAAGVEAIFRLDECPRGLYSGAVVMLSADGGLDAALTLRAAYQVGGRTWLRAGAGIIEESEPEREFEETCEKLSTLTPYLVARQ
Polio RdRp inh intensity = further read-out of Polio RdRp inh, marked with its call; % elongation; measured here: total intensity read-out; formula for this scale not given here;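 total fluorescence in place of polarization; lower means less elongation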
* = called active by the depositor; · = no result given.

SMILES | MenB inh | Polio RdRp inh | Polio RdRp inh intensity | Mtb MbtI inh
O=C1CCCCC1Sc1nnc(C2CC2)n1Cc1ccccc1 (stereo unspecified) | -19 | 105 | 98 | -4
Cc1ccc(S(=O)(=O)N2CCCC2)c(C)c1 | 6 | 101 | 98 | -17
CCCn1c(=O)c(/C(N)=N/O)nn(-c2ccccc2)c1=O | -6 | 107 | 111 | -9
O=C(CCc1nnc2ccc(NCc3ccccc3)nn12)NCc1cccnc1 | -8 | 100 | 103 | 16
O=C(O)COCC(=O)Nc1cnccn1 | -16 | 96 | 95 | 30
CC1CCc2c(sc3ncnc(NCCOCCO)c23)C1 (stereo unspecified) | -35 | 105 | 99 | 6
CCNc1ccc(S(=O)(=O)C(F)(F)F)cc1N | · | 104 | 107 | -5
Cc1ccc(/C=C2\CCC/C(=C\c3ccc(C)s3)C2=O)s1 | -19 | 105 | 117 | -4
O=C(NCCc1ccccc1)c1cnn2cccnc12 | -4 | 100 | 102 | 0
c1ccc(Cc2ccccc2-c2nnc(-c3cccnc3)o2)cc1 | -4 | 105 | 102 | 6
CN1C(=O)CS/C1=N/N=C/c1cn(-c2ccccc2)nc1-c1ccccc1 | -5 | 102 | 103 | -6
COc1cccc(/C=C/C(=O)OCC(=O)Nc2ccccc2)c1 | · | 99 | 99 | -92
Cc1ccc2c(cnn2C(=O)CCC(=O)NCc2ccccc2)c1 | 16 | 103 | 101 | 8
O=C(OC1(C(F)(F)F)C(=O)Nc2cc3c(cc21)OCCO3)c1ccc(S(=O)(=O)N2CCCCCC2)cc1 (stereo unspecified) | 7 | 104 | 100 | -4
CN1CCN(c2ncnc3c2cnn3-c2ccccc2)CC1 | -36 | 101 | 103 | 21
Cc1cccc(NC(=O)Cn2c(=O)n(CCC(=O)NCc3ccco3)c(=O)c3ccccc32)c1 | -30 | 102 | 103 | 14
COc1cc2ncc(S(=O)(=O)c3ccccc3)c(N3CCN(c4ccccc4F)CC3)c2cc1OC | 17 | 101 | 100 | 10
CCn1c(Cn2nc(C(=O)O)c3ccccc3c2=O)nc2cc(S(=O)(=O)N(C)C)ccc21 | -40 | 93 | 109 | 11
CS(=O)(=O)c1nsc(S(C)(=O)=O)c1C#N | -6 | 101 | 101 | 9
COc1ccc(CCN(C)CC(=O)Nc2c(C)cc(C)cc2C)cc1OC | -15 | 101 | 100 | 5
C#CC(CC)(CC)NC(=O)COc1ccccc1Cl | 15 | 98 | 105 | 2
Cc1nc(-c2cccc(Cl)c2)cs1 | 11 | 98 | 103 | -1
CCOC(=O)c1sc(N)c(C#N)c1CSc1ncnc2sc3c(c12)CCC3 | -22 | 111 | 116 | -10
CC1(C)Cc2ccccc2C(=NCC(=O)O)N1 | -9 | 99 | 101 | -17
COCCn1c(=C(C#N)C#N)s/c(=C/c2ccc(C)s2)c1=O | 6 | 34 | 240 | 2
C(=N\n1nnnc1Nc1ccccc1)/c1ccc(OCc2ccccc2)cc1 | 5 | 104 | 111 | ·
COc1ccc(N2CCN(C(=O)CCS(=O)(=O)c3ccc4c(c3)NC(=O)CO4)CC2)cc1 | 7 | 103 | 100 | -26
O=C(Nc1ccccc1)c1ccc(N2C(=O)CCC2=O)cc1 | · | 101 | 100 | -13
FC(F)(F)c1cccc(NC(=S)N2CCn3cccc3C2c2cccnc2)c1 (stereo unspecified) | -3 | 101 | 104 | 8
O=C(CSc1c(-c2ccccc2)c2cc(Cl)ccc2[nH]c1=O)N1CCN(C(=O)c2ccco2)CC1 | -45 | 100 | 102 | 1
N#CCCn1cc(C(=O)Nc2ccccc2Cl)c(-c2ccc(F)cc2)n1 | -2 | 100 | 105 | -6
CCN(CC)C(=O)C1CCN(S(=O)(=O)c2ccc(C)cc2)CC1 | -51 | 105 | 100 | -9
c1ccc(CCN2CN(Cc3ccccc3)c3nc4ccccc4n3C2)cc1 | 3 | 99 | 104 | 0
NNc1nc(-c2ccccc2)cc(-c2ccc(Br)cc2)n1 | -42 | 101 | 105 | -7
COc1cc(C(=O)Oc2ccc(Cl)c3cccnc23)cc(OC)c1OC | 2 | 102 | 101 | ·
O=C(OCC(=O)N1CCCCC1)c1ccc(-c2nc3ccccc3s2)s1 | 6 | 104 | 110 | 76
C=CCC(N)(CC=C)c1ccc(C)cc1 | -11 | 109 | 116 | ·
COc1ccc(/C=C2\SC(=O)N(CCNC(=O)[C@@H]3CCCN3C(=O)OC(C)(C)C)C2=O)cc1 | -25 | 101 | 104 | 17
Cc1cc(/C=C2/NC(=O)N(Cc3ccccc3F)C2=O)c(C)n1C | -9 | 102 | 105 | 2
COc1ccc(-c2nc3c4cnn(-c5cccc(C)c5)c4ncn3n2)cc1 | -8 | 106 | 107 | 20
Cc1cc2c(cc1S(=O)(=O)N1CCOCC1)n(C)c(=O)c(=O)n2C | 11 | 102 | 104 | -2
O=C(CSc1nc2ccccc2o1)N1CCNC1=O | -9 | 105 | 102 | ·
Cn1c(SCc2cc(=O)[nH]c3ccccc23)nc2ccccc2c1=O | 4 | 99 | 101 | -15
CCOC(=O)c1c(C)n(-c2cccc(C)c2)c2ccc(O)cc12 | -12 | 103 | 106 | ·
COc1ccc(S(=O)(=O)N(CC(=O)NC2CC2)C2CCCCC2)cc1Cl | -56 | 101 | 102 | -1
CC(C)NC(=O)Nc1ccccc1C(=O)O | -15 | 92 | 95 | 46
CNC(=S)N1CCN(c2ccccc2OC)CC1 | -3 | 106 | 107 | -23
O=C(CN1CCC(c2nc3ccccc3s2)CC1)N(C1CCCCC1)C1CCS(=O)(=O)C1 (stereo unspecified) | 4 | 105 | 95 | 7
Cc1ccc2nc(SCN3C(=O)c4ccccc4C3=O)[nH]c2c1 | 6 | 104 | 110 | -11
CN(C)CCCNc1nc2ccccc2nc1NS(=O)(=O)c1ccc(Cl)cc1 | -1 | 98 | 102 | 22
Cc1nc2c(c(C)nn2C(C)(C)C)c(C)c1CCC(=O)N1CCCCCC1 | -24 | 102 | 100 | 0
COCc1cc(C)nc2sc3c(=O)n(Cc4ccccc4)nnc3c12 | -12 | 99 | 101 | ·
CCC(Cc1cccc(O)c1)C(=O)O (stereo unspecified) | -7 | 110 | 100 | ·
Cc1csc(C(C(=O)O)c2ccccc2)n1 (stereo unspecified) | · | 102 | 108 | -7
O=c1[nH]c2ccc(S(=O)(=O)N3CCCC3)cc2s1 | -17 | 98 | 90 | ·
CCCNC(=O)Nc1cccc(CC)c1 | -17 | 107 | 100 | -5
COc1ccc(N2CCN(C(=O)c3ccc(C#CC4(O)CCCCC4)cc3)CC2)cc1 | -13 | 104 | 107 | ·
COc1ccc(CNc2ncn[nH]2)cc1OC | 10 | 100 | 98 | -2
Cn1cccc1C(=O)OCc1ccc(C(C)(C)C)cc1 | -42 | 102 | 94 | -6
O=S(=O)(NCCN1CCOCC1)c1cccc(C(F)(F)F)c1 | 1 | 101 | 100 | -10

New compounds follow
SMILES | MenB inh | Polio RdRp inh | Polio RdRp inh intensity | Mtb MbtI inh
NNC(=O)c1cc(N)c(=O)[nH]n1 | 12 | 98 | 105 | 21
CCOc1ccc(NC(=O)CN(C)CC(=O)NC2CCCc3ccccc32)cc1OCC (stereo unspecified) | -11 | 99 | 107 | 2
CNC[C@H](O)c1cccc(O)c1 | -1 | 101 | 102 | -26
O=C(OCC(=O)N1CCc2ccccc2C1)c1cccs1 | · | 104 | 109 | -13
CC(=O)NCCc1nc2ccccc2n1Cc1ccc(C(C)C)cc1 | 2 | 103 | 104 | -6
O=C(COC(=O)c1ccncc1)NC12CC3CC(CC(C3)C1)C2 | -12 | 105 | 104 | -4
O=C(CCN1C(=O)C2C3C=CC(C3)C2C1=O)Nc1cccc2ccccc12 (stereo unspecified) | -9 | 102 | 102 | 7
Cc1ccc(Cc2c(C)[nH]c3[nH]n(-c4ccccc4)c(=O)c3c2=O)cc1 | -3 | 101 | 101 | 44
Cc1ccn(CCC(=O)Nc2nccs2)n1 | -4 | 99 | 102 | -6
CNS(=O)(=O)c1ccccc1C(=O)N/N=C/c1ccc(OC)c(OC)c1 | 11 | 101 | 104 | 7
Cc1nccc2[nH]c(=O)c(C(=O)NCCc3ccc(Cl)cc3)cc12 | -4 | 99 | 100 | 62
CS(=O)(=O)N(CC(=O)Nc1cccc(F)c1)c1cccc(F)c1 | -14 | 101 | 100 | -1
Cn1c(=O)c2c(-c3ccccc3Br)n(C(CO)(CO)CO)cc2n(C)c1=O | 5 | 103 | 102 | -2
CCn1c2c(c3cc(OCc4ccccc4)ccc31)CCCC2=O | -20 | 109 | 113 | 80
C/C(=N\n1c(-c2ccccc2)n[nH]c1=O)c1ccccc1 | -38 | 101 | 99 | ·
Cc1ccccc1-c1nc2cc(NCc3cccs3)ccc2o1 | -17 | 101 | 102 | 116
Cc1cc(C)n2nc(-c3ccccc3)cc2n1 | 27 | 100 | 101 | -175
CCOC(=O)c1cc(-c2ccc(OC)c(S(=O)(=O)NC)c2)on1 | -10 | 101 | 104 | 9
Cc1nnc2n(c1=O)N=C(c1ccccc1)CS2 | -12 | 99 | 101 | -12
O=C(COC(=O)c1ccncc1)Nc1ccccc1 | -21 | 103 | 107 | -22

Continued; it opens with the 2 that closed the last part.
SMILES | MenB inh | Polio RdRp inh | Polio RdRp inh intensity | Mtb MbtI inh
Cc1nnc2n(c1=O)N=C(c1ccccc1)CS2 | -12 | 99 | 101 | -12
O=C(COC(=O)c1ccncc1)Nc1ccccc1 | -21 | 103 | 107 | -22
CN(C(=O)Nc1ccccc1)n1cnc2ccsc2c1=O | -7 | 107 | 108 | 2
CCOC(=O)C1CCN(C/C=C/c2ccccc2)CC1 | -9 | 101 | 103 | -14
O=C(c1cc2c(=O)[nH]c3ccccc3c2s1)N1CCC2(CC1)OCCO2 | -15 | 101 | 101 | 11
C=CCNc1nc(C(=O)OCC(=O)c2cc(C)n(Cc3ccc4c(c3)OCO4)c2C)cs1 | -27 | 105 | 109 | 15
CN(C)C(=O)NC1c2ccccc2-c2ccccc21 | -15 | 100 | 103 | -3
O=c1[nH]c2ccccc2c(O)c1Br | 9 | 100 | 107 | 40
O=c1sc2c(s1)SCSCS2 | -12 | 99 | 104 | 46
CC12CCC(=O)N1C(C(=O)OCC(=O)Nc1cccc(Br)c1)CS2 (stereo unspecified) | 1 | 102 | 97 | 16
CC1CCCCN1C(=O)COc1ccc(NC(=O)c2ccco2)cc1 (stereo unspecified) | -27 | 102 | 98 | -11
Cn1nc(C(=O)NCCNc2ncc(C(F)(F)F)cc2Cl)c2ccccc2c1=O | -4 | 103 | 97 | 1
O=C1Cc2cc(S(=O)(=O)N3CCCC3c3ccc4c(c3)OCCO4)ccc2N1 (stereo unspecified) | -7 | 110 | 105 | -6
CCOC(=O)C1CCN(C(c2cc3ccc(OC)cc3n3nnnc23)c2nnnn2C2CCCC2)CC1 (stereo unspecified) | -69 | 102 | 104 | 8
CC(=O)N1c2ccccc2C(C)CC12CCCCC2 (stereo unspecified) | -11 | 102 | 107 | ·
Cc1cc(=O)c2n(Cc3ccccc3Cl)nc[n+]2[nH]1 | 2 | 103 | 105 | ·
O=C1N(Cc2ccccc2)c2ccccc2C1(O)c1nnc(-c2ccccc2)o1 (stereo unspecified) | -2 | 100 | 104 | -7
COC(=O)c1scc(C)c1NC(=O)CC1NCCNC1=O (stereo unspecified) | -32 | 104 | 104 | -1
O=C1NC2(CCCC2)C(=O)N1CCC(=O)N(CC1CCCO1)c1nc2ccccc2s1 (stereo unspecified) | -26 | 97 | 101 | -5
Cc1cc(=O)[nH]c2ccc(S(N)(=O)=O)cc12 | -28 | · | · | 20
O=C(Nc1ccc(F)cc1)C1CC(=O)N2CCN=C2S1 (stereo unspecified) | -15 | 102 | 102 | ·
Cn1c(C(=O)N2CCC3(CC2)OCCO3)cc2c(=O)[nH]c3ccccc3c21 | -28 | 103 | 99 | -6

Taken from above:
Under Polio RdRp inh, `O=C1N(Cc2ccccc2)c2ccccc2C1(O)c1nnc(-c2ccccc2)o1` (stereo unspecified) reads 100
Under Polio RdRp inh, `Cn1c(C(=O)N2CCC3(CC2)OCCO3)cc2c(=O)[nH]c3ccccc3c21` reads 103
Under Mtb MbtI inh, `Cc1cc(=O)[nH]c2ccc(S(N)(=O)=O)cc12` reads 20
Under Polio RdRp inh, `CN(C(=O)Nc1ccccc1)n1cnc2ccsc2c1=O` reads 107

Next section
SMILES | MenB inh | Polio RdRp inh | Polio RdRp inh intensity | Mtb MbtI inh
O=C(CN1C(=O)c2ccccc2C1=O)NN1C(=O)CSC1=S | -74 | · | · | 2
CCN(C(=O)CC(C)(C)C)c1ccccc1 | 3 | 101 | 96 | ·
Cc1ccc(S(=O)(=O)c2nc(NCCCN3CCCC3=O)sc2Cl)cc1 | -36 | 102 | 106 | 1
Cc1cccc(N2CCN(C(=O)C3=NNC(=O)CC3)CC2)c1C | 2 | 94 | 99 | -2
O=C(N/N=C/c1c(-c2ccccc2)nc2sccn12)c1cc(=O)[nH]c(=O)[nH]1 | -50 | 91 | 87 | -4

Two compounds drawn at random from those above, as already listed:
SMILES | MenB inh | Polio RdRp inh | Polio RdRp inh intensity | Mtb MbtI inh
COc1cccc(/C=C/C(=O)OCC(=O)Nc2ccccc2)c1 | · | 99 | 99 | -92
CNC(=S)N1CCN(c2ccccc2OC)CC1 | -3 | 106 | 107 | -23

Bioassay records as filed in PubChem BioAssay.
